Compound activity as filed in PubChem BioAssay.
BasE inh: inhibitors of Acinetobacter baumannii siderophore enzyme BasE; purified BasE, fluorescence polarization binding displacement; inhibition, % (concentration not given with the values); 0.1% of 84,000 active; AID 485350;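 active = both replicates above 25% with normal brightness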;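 also: 0% = negative plate control signal and 100% = positive plate control signal; stock transfer was 100 nL into about 30 µL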
KSHV LANA nucl: inhibitors of KSHV LANA binding to nucleosomes; FITC-LANA1-23 / chicken nucleosome fluorescence polarization; hits give low values; z-score (test concentration not listed); 0.3% of 51,000 active; AID 720717;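 active = both repeat wells score below -2 in polarization z-score versus plate sample wells, excluding overly bright wells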;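 also: 100 nL library stock added to about 30 µL; numbers are from one replicate; some results filed as inactive read as strong as hits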
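Test system: purified chicken nucleosomes with FITC-labelled LANA N-terminal peptide (1-23); Input: 240 nM purified chicken nucleosomes (480 nM peptide binding sites), final; Medium: TEN-BT buffer, pH 7.5; Timing: 10–45 min, room temperature; Technique: fluorescence polarization, 480 nm excitation, 535 nm parallel and perpendicular emission; Replication: duplicates.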
Active calls of the source: *; . = not tested or not shown; & = joins results of further samples.

Order of results: BasE inh | KSHV LANA nucl
- CCc1ccc(C=C2C(=O)N(C)C(=O)N(C)C2=O)cc1
→ -0.2 | -0.038
- N#Cc1c(C(F)(F)F)cc(=O)n2c1[nH]c1ccccc12
→ 0.9 | -0.13
- CCOC(=O)N1CCN(S(=O)(=O)c2cc(OC)ccc2OC)CC1
→ -1.4 | .
- CC1=C(c2ccc(C)c(C)c2)S(=O)(=O)NC1=NCC(=O)NCCc1ccco1
→ -12 | 0.62
- Cc1nn(C)c(Cl)c1NC(=O)OCC(C)(C)C
→ . | -0.64
- O=C(COc1ccc(-c2nnco2)cc1)Nc1cc(C(F)(F)F)ccc1-n1cncn1
→ -0.5 | .
- O=C(Nc1ccccc1)OCCCc1ccccc1
→ 2.1 | .
- O=S(=O)(CCSc1ccccc1)c1ccccc1
→ -0.9 | .
- O=C(NCSc1nc2ccccc2o1)c1cc2ccccc2o1
→ -0.1 | .
- CCN(CC)S(=O)(=O)c1ccc(Sc2cccc(C(F)(F)F)c2)nc1
→ 3.1 | .
- Fc1ccccc1CN1CCC(CNc2nc(-c3ccccc3)no2)CC1
→ 1.2 | 0.2
- Cc1cc(OCC(=O)NN)no1
→ -0.6 | .
- Cc1cc(C)n(CCCNCC(O)c2ccccc2)n1 (stereo not given)
→ 0.4 | .
- CCCCCn1c(N)c(C#N)c2nc3ccccc3nc21
→ 1.1 | .
- O=C1CCCCC1C(=O)c1ccccc1 (stereo not given)
→ -0.3 | .
- CCCC1O[C@@H]2CC3C4CCC5=CC(=O)C=CC5(C)C4[C@@H](O)CC3(C)[C@]2(C(=O)CO)O1 (stereo not given in full)
→ -3.0 | -0.92&-0.28
- COc1ccc(S(=O)(=O)N(C)C(C)C(O)c2ccccc2)cc1 (stereo not given)
→ 1.2 | .
- C#CCn1c(=NC(=O)c2ccccc2)sc2cc(S(N)(=O)=O)ccc21
→ -5.5 | 0.71
- CCC(=O)Oc1ccc2c(C)c(Cl)c(=O)oc2c1
→ 1.6 | -0.44
- CN(C(=O)CSc1nc(-c2ccccc2)cc(-c2ccco2)c1C#N)c1ccccc1
→ 2.7 | .
- Nc1nonc1/C(=N/O)N1CCCC1
→ -2.9 | 0.86
- CC1=C(C)C(=O)C(N2CCOCC2)=CC1=O
→ 1.9 | .
- COc1cc(C)c(S(=O)(=O)n2ccnc2)cc1C(C)C
→ 0.9 | -0.22
- COc1ccc(OC)c(S(=O)(=O)NCc2nn(-c3ccccc3)nc2C)c1
→ 0.7 | .
- Fc1cccc(Nc2nc(Cl)nc(Cl)n2)c1
→ 2.2 | 0.3
- CC1CCCCN1c1csc2ccccc2c1=O (stereo not given)
→ -0.3 | 0.99
- Cc1cc2nc(N3CCCC(C(F)(F)F)C3)c3ccccc3n2n1 (stereo not given)
→ 2.9 | .
- O=C(C1Cc2ccccc2N1C(=O)c1ccccc1)N1CCCC1 (stereo not given)
→ -0.8 | -0.78
- CC1CCc2sc(-c3nnc(SCC(=O)c4ccc(NS(C)(=O)=O)cc4)o3)cc2C1 (stereo not given)
→ 0.6 | .
- CC(SC(=S)N1CCOCC1)C(=O)O (stereo not given)
→ -1.2 | .
- Cc1cc(C)n(C(=O)c2ccccc2C(=O)O)n1
→ 2.6 | -0.3
- O=C(Nc1c2c(nc3c1CCC3)CCCC2)C1CCCCC1
→ 1.4 | .
- CCC/C(O)=C1\C(=O)CC(C)(C)CC1=Nc1ccccc1OC
→ -1.1 | -0.79
- CN1C(=O)C2(NCCc3c2[nH]c2ccccc32)c2ccccc21 (stereo not given)
→ -1.5 | 0.53
- CCOC(=O)N1CCN(Cc2ccc(Cl)cc2)CC1
→ -2.7 | 0.28
- CC(C(=O)N(C)Cc1ccccc1)n1ccc2cc(S(=O)(=O)N3CCCCCC3)ccc21 (stereo not given)
→ -1.5 | .
- CNC(=S)NN(c1ccccc1)c1ccccc1
→ -1.9 | .
- O=C(COc1ccc2ccccc2c1)NN1CCCCC1
→ -0.9 | 1.1
- CCOC(=O)NN=C1c2ccccc2-c2ccccc21
→ 2.7 | 0.036
- CC(Sc1ccc2c(c1)OCCO2)C(N)=O (stereo not given)
→ -0.9 | .
- O=C(c1ccco1)N1CCCCCCC1
→ 0.5 | 0.67
- COc1ccc(S(=O)(=O)N(CC(N)=O)Cc2ccccc2)cc1C
→ -1.4 | -0.051
- Cc1ccc(CNC(=O)c2ccccc2N(C)S(C)(=O)=O)cc1
→ -1.4 | 2.3
- N#Cc1cccnc1Br
→ 0.2 | -0.44
- CCCC12CN3CC(C)(CN(C1)C3c1c[nH]c3ccc(OC)cc13)C2=O (stereo not given)
→ 1.6 | -0.97
- O=S(=O)(Nc1ccccc1Oc1ccccc1)c1ccc(-c2ccon2)s1
→ 0.7 | .
- O=C1CCCCC1Sc1nnc2n(-c3ccccc3)c(=O)c3ccccc3n12 (stereo not given)
→ 0.9 | .
- N=C1SCCN1CC(=O)c1ccc(O)cc1
→ -5.3 | 1.8
- CC(=O)OCCn1c(=O)c2ccccc2c2ccccc2c1=O
→ -1.2 | .
- O=C(Cc1ccccc1)NCC(=O)OCc1ccccc1F
→ -1.4 | 0.14
- CSCc1nnc(NC(=O)c2ccc(S(=O)(=O)N(C)Cc3ccccc3)cc2)o1
→ -0.2 | 0.39
- CC(Nc1ncccn1)C1CC2CCC1C2 (stereo not given)
→ 3.4 | .
- COc1ccc(CSC2=C(C#N)C(=O)NC3(CCCCC3)S2)cc1
→ 39* | .
- Cn1c(=NC(=O)CS(=O)(=O)c2ccccc2)sc2ccccc21
→ 1.1 | 0.12
- COc1ccc(-c2n[nH]c(=S)n2/N=C/c2c(C)nn(-c3ccccc3)c2C)cc1OC
→ -0.9 | -1.1
- COC(=O)C1CSCN1S(=O)(=O)c1ccccc1 (stereo not given)
→ 2.7 | .
- CCc1ccc(C(=O)OCCN2C(=O)c3ccccc3C2=O)cc1
→ 1.6 | .
- CC1CCCC(C)N1C(=O)CN1c2cccc3cccc(c23)S1(=O)=O (stereo not given)
→ 3.4 | .
- Cc1ccc(C(=O)Cn2nnc(-c3ccccc3)n2)c(C)c1
→ -3.4 | .
- CC1(C)CCc2cc(CN3CCN(c4ccc(F)cc4)CC3)ccc2O1
→ . | -0.17

Seven records drawn at random from the list so far:
Order of results: BasE inh | KSHV LANA nucl
- CCc1ccc(C(=O)OCCN2C(=O)c3ccccc3C2=O)cc1
→ 1.6 | .
- Cc1ccc(CNC(=O)c2ccccc2N(C)S(C)(=O)=O)cc1
→ -1.4 | 2.3
- CC(Nc1ncccn1)C1CC2CCC1C2 (stereo not given)
→ 3.4 | .
- O=C(Cc1ccccc1)NCC(=O)OCc1ccccc1F
→ -1.4 | 0.14
- N=C1SCCN1CC(=O)c1ccc(O)cc1
→ -5.3 | 1.8
- CCCC12CN3CC(C)(CN(C1)C3c1c[nH]c3ccc(OC)cc13)C2=O (stereo not given)
→ 1.6 | -0.97
- CC1CCCC(C)N1C(=O)CN1c2cccc3cccc(c23)S1(=O)=O (stereo not given)
→ 3.4 | .

Remaining list, next part
Order of results: BasE inh | KSHV LANA nucl
- C=CCN1CC(C(N)=O)Oc2ccccc21 (stereo not given)
→ 2.7 | .
- O=C(CSC1=NCCS1)Nc1ccnc2ccccc12
→ 1.5 | -1.7
- O=C(NCCn1ccc2ccccc21)c1ccc(S(=O)(=O)N2CCCCC2)cc1
→ -1.9 | -0.44
- Cc1ccc(S(=O)(=O)N2CCN(C(=O)C3C4C=CC(C4)C3C(=O)O)CC2)cc1C (stereo not given)
→ -0.5 | 0.1
- COC(CN1C(=O)C2C3C=CC(C3)C2C1=O)OC (stereo not given)
→ 1.0 | .
- S=C(Nc1ccccc1)N1CCn2c(nc3ccccc32)C1
→ -1.8 | -0.43
- CC1c2ccsc2CCN1S(=O)(=O)c1ccccc1 (stereo not given)
→ 1.9 | .
- CCOC(=O)c1ccc2c(c1)NC(CC(=O)Nc1ccc(F)cc1)C(=O)N2CC (stereo not given)
→ 1.4 | .
- O=C(O)c1cccnc1Br
→ 4.1 | -0.67
- O=C(C1CCCN1S(=O)(=O)c1ccccc1)N1CCCCC1 (stereo not given)
→ 1.6 | -0.33
- CCCN(CCC)C(=O)C1Sc2nnc(C)n2NC1c1ccc(Cl)cc1 (stereo not given)
→ -0.2 | -1.1
- N#Cc1cc(Sc2nc3ccccc3s2)c(-n2nnc3ccccc32)cc1C#N
→ -3.2 | 0.49
- CCNc1nc(N2CCCC2)nc(N2CCCC2)n1
→ 0.5 | -0.23
- FC(F)(F)c1ccc(=S)[nH]c1
→ -0.4 | .
- COc1ccccc1CN(C(=O)c1noc2c1CCc1sccc1-2)C1CCN(C)CC1
→ -13 | -0.83
- Nn1c(C2CCCO2)n[nH]c1=S (stereo not given)
→ 3.2 | .
- O=C(CN1C(=O)S/C(=C/c2ccc(N3CCCCCC3)o2)C1=O)N1CCCCCC1
→ -49 | .
- CCOC(=O)C1=C(C)NC(C)=C(C(=O)OCC)C1c1ccccc1/C=C/C(=O)OC(C)(C)C
→ . | 0.16&-0.76
- Cc1oc(S(=O)(=O)N2CCOCC2)cc1C(=O)O/N=C(\N)c1ccc(C(C)(C)C)cc1
→ 2.4 | -0.44
- Cc1nn(-c2ccccc2)c2c1N(C(=O)CCC(=O)N1CCN(c3ccccc3F)CC1)CCS2
→ -1.7 | -1.6

Among those listed so far, 2 have bromine:
Order of results: BasE inh | KSHV LANA nucl
- N#Cc1cccnc1Br
→ 0.2 | -0.44
- O=C(O)c1cccnc1Br
→ 4.1 | -0.67

(continued)
Order of results: BasE inh | KSHV LANA nucl
- CS(=O)(=O)N(CCC#N)Cc1ccc(/C=C2\C(=O)Nc3ccccc32)o1
→ 0.1 | .
- CN(Cc1ccccc1)S(=O)(=O)c1cc(F)ccc1CN1C(=O)c2cccnc2C1=O
→ 0.8 | -0.69
- COc1cc(NC(=O)c2ccccc2)cc(OC)c1OC
→ 3.0 | -0.096
- CCOc1ccc(N=C2NC(=O)S/C2=C\c2ccc(OC)cc2)cc1
→ 3.0 | .
- CC(O)Cn1c(=S)[nH]c2ccc(Br)cc2c1=O (stereo not given)
→ 0.8 | .
- CC(C)c1ccc(NC(=O)COc2ncnc3cc(Cl)ccc23)cc1
→ 0.3 | .
- CCCn1c(=NC(=O)CCS(=O)(=O)c2ccccc2)sc2cc(S(N)(=O)=O)ccc21
→ -5.3 | 1.7
- O=C(c1cccs1)N1CCCc2ccccc21
→ -0.4 | 1.6
- Cc1ccc(OCC(=O)N2c3ccccc3CC2C)cc1 (stereo not given)
→ 1.2 | 0.035
- CCc1nnc(SCC(=O)Nc2ccccc2C(F)(F)F)c2cc3occc3n12
→ -1.4 | 1.2
- COCC(C)n1c(C)cc(C(=O)CSc2ccc(NC(C)=O)cc2)c1C (stereo not given)
→ 1.7 | .
- Nc1nnc(CCC(CCc2nnc(N)s2)(CCc2nnc(N)s2)C(=O)c2ccccc2)s1
→ -1.6 | -1.2
- CN(C)S(=O)(=O)c1cccc(C(=O)Nc2nnc(Cc3ccccc3)s2)c1
→ -1.9 | .
- O=C(O)C(c1ccccc1)N1CCOCC1 (stereo not given)
→ 1.3 | -1.6
- CCOC(=O)C(Sc1nnnn1-c1ccc(Cl)cc1)c1ccccc1 (stereo not given)
→ 0.5 | .
- CN1CN=C(SCc2ccc(Cl)c(Cl)c2)NC1
→ -2.0 | .
- CON(C)S(=O)(=O)c1cccc(C(=O)NC2CCSc3ccccc32)c1 (stereo not given)
→ -0.2 | .
- COCCCNc1c2c(nc3ccccc13)CCC2
→ 0.6 | -1.6
- C=CCN(C(=O)c1ccccc1OCc1c(C)noc1C)c1nc2c(s1)CCCC2
→ -0.9 | .
- c1ccc2c(c1)oc1c(NCCCCNc3ncnc4c3oc3ccccc34)ncnc12
→ 1.9 | .
- CCCCOC(=O)C1=C(C)NC2=C(C(=O)CC(c3ccccc3)C2)C1c1ccco1 (stereo not given)
→ 1.4 | 0.067
- CCc1ccc(CC)c(S(N)(=O)=O)c1
→ -2.8 | -0.8
- COC(=O)c1c(N2C(=O)Nc3ccccc3N2O)sc(C)c1C
→ 1.9 | -1
- COc1ccc(-c2noc(COC(=O)C3(c4ccc(Cl)cc4)CCC3)n2)c(OC)c1
→ -0.2 | .
- CC1CC(C)CN(C(=O)c2ccc(Cl)cc2)C1 (stereo not given)
→ 0.5 | -0.53
- CCOC(=O)c1c(CSc2ccc(C)cc2)n(C)c2cc(Br)c(O)c(CN(C)C)c12
→ -2.2 | .
- Cn1c(CC#N)n[nH]c1=S
→ 1.6 | .
- Nc1nc2ncc(CNc3ccc(C(=O)N[C@H](CCC(=O)O)C(=O)O)cc3)nc2c(=O)[nH]1
→ 0.1 | -0.012
- Cc1ccccc1Nc1nc(N)nc(CN2CC(C)OC(C)C2)n1 (stereo not given)
→ 0.9 | .
- CCC(C)c1ccc(NC(=O)CSc2nc(N)cc(=O)[nH]2)cc1 (stereo not given)
→ 1.3 | .
- O=C(CSc1nnc(-c2c[nH]c3ccccc23)o1)NCCC1=CCCCC1
→ 0.6 | .
- O=C(NNc1nc(CN2CCOCC2)nc2scc(-c3ccccc3)c12)c1cccc(S(=O)(=O)N2CCOCC2)c1
→ 0.9 | .
- Nc1sccc1C(=O)c1ccccc1
→ 0.1 | 0.48
- Cc1ccc(C(CC(=O)NCCCN2CCCC2)N2Cc3ccccc3C2=O)cc1 (stereo not given)
→ -2.0 | -1.8
- Cc1nc(SCC(=O)O)c2oc3ccccc3c2n1
→ 4.4 | .
- O=C(COC(=O)C1CC2CCCC(C1)C2=O)NCc1cccs1 (stereo not given)
→ 0.0 | .
- CC(C)(C)NC(=O)CSc1nnc(NC(=O)Cn2cnc3ccccc3c2=O)s1
→ 0.3 | 0.26
- O=C(c1ccccc1)N1CCN(C(=O)c2cc3ccccc3oc2=O)CC1
→ 1.2 | -0.45
- COC(=O)c1cc2sc(Cl)cc2n1CC(=O)N(C)c1ccccc1
→ 1.5 | 0.025
- CC(=O)N1CCN(/C(C)=C\C(=O)C(F)(F)F)CC1
→ 1.8 | .

These rows are one share of the data. The share of hits here may be higher or lower than overall.
